PrP UTR inh – suppresses PrP 5' UTR mRNA reporter expression; cell-based PrP 5' UTR mRNA reporter, plate reader; inhibition, % (test concentration not listed); 340,000 compounds, 0.35% hits; AID 488862;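 active means every replicate at 50% or more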;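 further: 0 = median of the neutral control wells; tested in H4 reporter cells; numbers are from one replicate; inactives centre near -14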
BJeLR lethal – kills HRASV12-expressing BJeLR cells; BJeLR (HRASV12) viability, CellTiter-Glo ATP luminescence, 48 h; reference of the scale not given here; inhibition, % (no concentration beside the values); 300,000 compounds, 0.17% hits; AID 1554;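 active means replicate mean above 50%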;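 further: 50 nL library stock added to about 25 µL; numbers are from one replicate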
Autofluor counter – compound fluorescence in toxin protease inhibitor counterscreen; compound autofluorescence counterscreen, microsphere flow cytometry; active compounds read high; fluorescence intensity (test concentration not listed); 360,000 compounds, 3.1% hits; AID 624483;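 active means at least 3 SD above the mean of all compounds, about 16000 in these data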;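 further: 100 nL of 1 mM stock went into each well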
Sa RN4220 lethal – S. aureus RN4220 growth inhibition; 330,000 compounds, 0.33% hits; inhibition, % (no concentration beside the values); OD600, 16 h;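 active means z-score of -3 or lower and OD600 up to 0.18 on both plates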;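 further: plate controls were untreated cells for no effect and reference antibiotic for full effect; stock transfer was 100 nL into about 80 µL; one replicate is shown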
Mtb hypoxia inh – Mtb hypoxia fluorescent reporter inhibition; M. tuberculosis hypoxia-regulated fluorescent reporter, fluorescence; fluorescence inhibition, % (test concentration not listed); 300,000 compounds, 0.1% hits; AID 1159583;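 active means 35 to 45% if threefold the growth effect, above 45% if 1.5-fold the growth effect; inactive means the rest, general growth blockers included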;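 further: wells of about 50 µL received 100 nL stock; 0% = vehicle wells and 100% = reference inhibitor wells; whole bacteria with a GFP reporter of the hypoxia response; strong numbers were not always called active; many hits fall short of the cut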
Sa ugtP lethal – kills S. aureus RN4220 lacking UgtP; 330,000 compounds, 0.54% hits; AID 1259309; growth inhibition, % (test concentration not listed); S. aureus RN4220 ugtP deletion, OD600 growth, 16 h; some inactives read as strong as hits;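 active means z-score under -3 and OD600 up to 0.15 on both plates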;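 further: plate controls were untreated wells for no effect and antibiotic for full effect; wells of about 80 µL received 100 nL stock; the first replicate is given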
Mtb hypoxia inh growth – recorded beside Mtb hypoxia inh, whose call it bears; growth inhibition, %; measured here: M. tuberculosis growth (absorbance);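 0% = vehicle and 100% = reference antibiotic; read after six days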
Starred values were filed as active, the others as inactive; nt = not tested or not shown.

SMILES	PrP UTR inh	BJeLR lethal	Autofluor counter	Sa RN4220 lethal	Mtb hypoxia inh	Mtb hypoxia inh growth	Sa ugtP lethal
O=C(CN1CCC(n2nnc3cc(F)ccc32)CC1)NCCc1nc2ccccc2[nH]1	-10	-9	7589	0.9	-4	-1	4
CC(=O)Nc1cccc(-c2nc3ccc(NC(C)=O)cc3s2)c1	-85	3	2041	0.5	-3	2	-4
Cc1ccc(OCCn2cc(/C=N/NC(=O)c3ccncc3)c3ccccc32)cc1	-4	-16	10199	nt	nt	nt	nt
COC(=O)c1ccc(COC(=O)c2cc3ccccc3oc2=O)cc1	-27	-13	3455	3.2	23	9	5
CCOC(=O)C1CCCN(C(=O)Cn2cccc2C(=O)c2ccccc2)C1 (stereo not drawn)	-23	-6	2882	1.8	9	10	-10
COc1ccc(NC(=O)CN(c2c(C)cccc2C)S(C)(=O)=O)cc1	-9	-10	3741	1.8	-4	6	-5
COc1ccccc1CNC(=O)c1cc(-c2ccccc2C)n(CC2CC(c3cccc([N+](=O)[O-])c3)=NO2)n1 (stereo not drawn)	4	nt	4036	0.5	2	8	2
COc1cc(NS(=O)(=O)c2ccc3c(c2)oc(=O)n3C)cc(OC)c1OC	-5	2	5993	4.9	nt	nt	4
Cc1oc2c(c1C(=O)NCc1ccccc1)CCCC2	-9	-5	9873	4.8	10	10	-1
COc1ccc(O)c(C(=O)c2cc(C#N)c(=O)n(CC3CCCO3)c2)c1 (stereo not drawn)	-15	1	2477	-4.7	4	6	-8
CCOc1ccccc1/C=C/c1onc(C)c1S(=O)(=O)N1CCC(C(=O)NC(C)(C)C)CC1	-8	7	4621	-8.3	-6	6	-17
O=C(O)c1nccnc1C(=O)N1CCN(c2ccccc2)CC1	-19	17	2029	-1.4	-5	7	-2
CC(C)CC(=O)Nc1nnc(SCC(=O)NCC2CCCO2)s1 (stereo not drawn)	-18	1	6050	-0.9	-6	4	4
CC1CCCCC1n1c(-c2cccnc2)n[nH]c1=S (stereo not drawn)	7	4	3180	-0.7	-12	-12	-1
CCN(CC)c1nc(N(CC)CC)[nH]c(=O)n1	-7	6	nt	0.8	6	3	-4
CCc1nnc(NC(=O)CSc2ccc(Cl)cc2)s1	-13	-6	3106	1.9	3	-5	2
COCCn1c(SCC(=O)Nc2ccccc2C(F)(F)F)nc2ccccc2c1=O	-23	-10	3855	5.9	8	7	4
C1CN(c2nc(N3CCOCC3)nc(N3CCOCC3)n2)CCO1	nt	3	nt	3.1	11	8	6
CC(=O)O[C@@H]1[C@@H](O)[C@@H](O)[C@H](Oc2c(-c3ccc(O)cc3)oc3c(CC=C(C)C)c(O)cc(O)c3c2=O)O[C@H]1C	nt	-3	nt	0.8	nt	nt	-4
COC(=O)c1ccc(COc2ccccc2/C=C(\C#N)C(=O)Nc2c(C)cc(C)cc2C)cc1	-32	3	2493	9.4	-5	-1	-9
O=c1[nH]c2ccccc2nc1/C=C/c1ccc(Cl)cc1	-77	0	4595	nt	nt	nt	nt
CN1C(=O)C(O)(CC(=O)C=CC=Cc2ccccc2)c2ccccc21 (stereo not drawn)	nt	nt	nt	8.2	10	11	-1
O=C(CCCOc1ccc(Cl)cc1Cl)NCCCO	-35	2	2820	1.3	nt	nt	-7
Cc1cc(C)cc(NC(=S)N2CCN(CCO)CC2)c1	-11	2	2049	4.6	8	7	12
Cc1cnn(CCC(=O)NNC(=S)Nc2ccccc2)c1	-1	-11	22734*	2.5	1	1	3
COCCn1nnnc1C(c1cccc(C(F)(F)F)c1)N1CCN(Cc2ccccc2)CC1 (stereo not drawn)	-2	-7	2923	1.5	-5	-1	-1
CCN1CCN(c2ccc(S(=O)(=O)N3CCCCC3)cc2NC(=O)c2ccc(C)o2)CC1	-7	2	5726	9.5	4	1	0
O=C(Nc1ccc(N2CCOCC2)cc1)c1ccc(Cl)cc1N1CCCC1=O	-24	nt	3958	-0.3	-6	7	-6
O=C(CSc1nc2ncccc2[nH]1)NCc1ccco1	4	-4	5726	3.0	12	3	1
C=CCOc1ccc(/C=C/C(=O)OCC(=O)N(C)CC(=O)Nc2ccccc2Cl)cc1	-8	-3	5628	3.8	-4	-7	7
Cc1c(C(=O)Nc2ccc(S(=O)(=O)N(C)C3CCN(C)CC3)cc2)oc2c(Cl)cccc12	-6	5	nt	-2.6	12	7	1
COC(=O)Nc1ccc(S(=O)(=O)N2CCCC(C(=O)N3CCN(C)CC3)C2)cc1 (stereo not drawn)	-9	-5	4572	5.6	-1	6	5
CCCCCCCSc1nc(N)cc(=O)[nH]1	-11	1	2018	4.7	11	4	3
CCOC(=O)C1(CCc2ccccc2)CCN(C(=O)CCn2cnnn2)CC1	-14	-16	3421	6.4	10	6	-4
CCOC(=O)N1CCN(C(=O)COCc2cc(-c3ccc4c(c3)OCO4)on2)CC1	-12	-20	7109	-4.1	-3	-15	-3
COc1cc(C=NNC(=O)CN2CCCCC2)ccc1OCc1ccccc1	nt	nt	nt	5.3	4	-2	4
CCCCN(C(=O)c1cccc(-c2ccc(OC(C)=O)cc2)c1)c1c(N)n(CCC)c(=O)[nH]c1=O	-13	nt	3109	4.5	15	29	3
Cc1cccc(N(CC(=O)N2CCN(c3ccc(F)cc3)CC2)S(C)(=O)=O)c1C	-18	1	4507	0.4	14	-6	-3
COc1c(/C=N/Nc2ccc(C(=O)O)cc2)c(CCN(C)C(C)=O)cc2c1OCO2	-8	1	5498	nt	nt	nt	nt
NS(=O)(=O)c1ccc(CNC(=S)NC2CC2)cc1	1	-6	2531	4.3	8	13	-7
O=C(O)c1ccc(Cl)c(S(=O)(=O)Nc2ccc3[nH]c(=O)[nH]c3c2)c1	-15	-2	5108	-0.7	1	-5	-1
CCN1/C(=C/C=C/c2oc3ccc(-c4ccccc4)cc3[n+]2CC)Oc2ccc(-c3ccccc3)cc21	11	80*	70271*	97*	-194	95	100*
COC(=O)c1ccccc1NC(=O)c1cc(OC)cc(OC)c1	-29	-11	5057	-4.6	nt	nt	-8
COc1cc(Br)cc(C2C3=C(CCCC3=O)N(c3ccc(F)cc3)C3=C2C(=O)CCC3)c1O	-8	0	4852	2.5	-9	6	1
Cc1ccccc1NC(=O)c1ccc(Nc2c([N+](=O)[O-])cc([N+](=O)[O-])c3ccccc23)cc1	-21	14	2471	-6.3	-3	7	-14
Cc1ccc(S(=O)(=O)N2CCN(C(=O)c3ccc(-n4cncn4)c([N+](=O)[O-])c3)CC2)cc1C	-13	10	4590	-1.1	-3	-3	7
CC/C(Cc1ccccc1)=N/NC(=O)CNC(=O)c1ccc(Cl)cc1Cl	-18	-9	6176	nt	nt	nt	nt
O=S(=O)(N1CCCCCC1)N1CCN(S(=O)(=O)N2CCCCC2)CC1	-18	8	19718*	0.9	15	8	3
CCOc1ccc(-c2nc(N)ncc2-c2ccc(OC)cc2)c(O)c1	-15	-1	7814	-2.2	-7	-7	5
COc1ccccc1NC(=O)Cc1ccc(-c2ccccc2)cc1	1	-5	3651	13	10	7	12
COc1ccc(-c2ccc3sc4ccccc4c(=O)c3c2)cn1	-81	19	3674	3.7	9	8	2
COc1ccc(C=NN=C(N)c2nonc2N)cc1	nt	nt	nt	5.2	10	7	-5
CCC/C(O)=C1\C(=O)CCCC1=NCCc1ccc(OCC)c(OCC)c1	8	-14	4293	1.1	-7	4	-1
C=CCn1c(C(CCCC)CC(O)COCCC)n[nH]c1=S (stereo not drawn)	-14	-9	2632	1.7	-4	1	9
CC(=O)NCCn1c(SCc2cc(=O)n3cc(Cl)ccc3n2)nc2ccccc2c1=O	-9	-5	21005*	0.0	1	27	-3
CC(OC(=O)CC1Sc2ccccc2NC1=O)C(=O)NC1CCCC1 (stereo not drawn)	-11	3	4048	2.1	4	2	3
CCCC(C)n1[nH]c(=O)c2c(C)cc(C)nc21 (stereo not drawn)	0	-7	5606	6.1	nt	nt	0
CCc1ccc(-n2c(SCC(=O)NC3CCS(=O)(=O)C3)nc3ccccc3c2=O)cc1 (stereo not drawn)	-28	nt	3643	3.5	8	-3	2
O=C(Cn1ncc2c(=O)oc3ccccc3c21)N1CCN(C(=O)c2ccco2)CC1	4	-10	3728	1.4	nt	nt	7
CCOC(=O)C(CC)(CC)C(C)=NNC(=O)CC#N	nt	nt	nt	-1.3	nt	nt	-2

Ordered by number of heavy atoms (descending): some entries from above.
SMILES	PrP UTR inh	BJeLR lethal	Autofluor counter	Sa RN4220 lethal	Mtb hypoxia inh	Mtb hypoxia inh growth	Sa ugtP lethal
COc1cc(Br)cc(C2C3=C(CCCC3=O)N(c3ccc(F)cc3)C3=C2C(=O)CCC3)c1O	-8	0	4852	2.5	-9	6	1
COc1cc(C=NNC(=O)CN2CCCCC2)ccc1OCc1ccccc1	nt	nt	nt	5.3	4	-2	4
CCC/C(O)=C1\C(=O)CCCC1=NCCc1ccc(OCC)c(OCC)c1	8	-14	4293	1.1	-7	4	-1
COC(=O)c1ccc(COC(=O)c2cc3ccccc3oc2=O)cc1	-27	-13	3455	3.2	23	9	5
COc1ccc(C=NN=C(N)c2nonc2N)cc1	nt	nt	nt	5.2	10	7	-5

The list goes on.
SMILES	PrP UTR inh	BJeLR lethal	Autofluor counter	Sa RN4220 lethal	Mtb hypoxia inh	Mtb hypoxia inh growth	Sa ugtP lethal
Cc1ccc(C=CC(=O)NCCCc2ccccc2)cc1	nt	nt	nt	2.0	7	7	3
CCc1ccc(N(CC(=O)N2CCN(Cc3ccccc3)CC2)S(C)(=O)=O)cc1	-9	0	3644	2.8	7	13	7
Cc1ccc(S(=O)(=O)N(C)C)cc1NC(=S)NCc1ccco1	-8	-2	4272	1.7	0	11	3
COc1cc(/C=C2\COC/C(=C\c3cc(OC)c(OC)c(OC)c3)C2=O)cc(OC)c1OC	89*	41	4355	1.1	nt	nt	-2
O=C(CSc1c[nH]c2ccccc12)N1CCCc2ccccc21	-8	-3	5526	12	6	-1	13
CSc1nnc(C)c(/C=C/Nc2ccc(C)cc2)n1	-2	0	2244	-4.3	nt	nt	-19
CN(C)C=Nc1c(C#N)cnn1-c1ccc(C(F)(F)F)cn1	nt	nt	nt	3.4	5	11	-1
CS(=O)(=O)N1CCN(C(=O)c2cc3ccccc3oc2=O)CC1	-10	15	20901*	4.6	13	6	1
CCN(CC(=O)NC)S(=O)(=O)c1ccc(Br)cc1	-16	2	4223	0.9	nt	nt	4
COc1cc(CC(=O)Nc2ccc(S(=O)(=O)N(C)C)cc2)cc(OC)c1OC	-4	nt	23513*	-0.6	-1	6	1
COC(=O)N/N=C(C)\C=C\c1ccco1	-12	0	2051	nt	nt	nt	nt
CCOC(=O)N1CCN(C(=S)NC(=O)C2CCCC2)CC1	-25	-10	5825	1.6	16	2	7
O=c1c2ccccc2nnn1COc1cccc2ccccc12	-70	-7	4238	6.1	14	16	5
COc1ccc(C(=O)Oc2cccc(C=NNC(N)=S)c2)cc1	nt	nt	nt	5.7	nt	nt	2
Cc1ccc(N2C(S)=C(C#N)C(=O)NC2c2cccs2)cc1 (stereo not drawn)	-23	nt	2188	4.2	14	-4	5
CCC(C(=O)Nc1cc(Cl)ccc1OC)c1ccccc1 (stereo not drawn)	-13	1	1962	-8.2	4	0	7
CN(C)C(=O)c1snnc1-c1ccccc1	-10	2	2223	-1.0	nt	nt	-2
CC(C)COC(=O)c1cccc2c1-c1ccccc1/C2=N\O	-9	7	4318	nt	nt	nt	nt
COc1ccc(-n2c(C)nc3cc(C(=O)N4CCOCC4)ccc32)cc1	-13	2	5173	4.9	nt	nt	-2
O=C(CCNC(=O)c1ccccc1Cl)Nc1cc(C(F)(F)F)ccc1N1CCCC1	-26	0	4359	0.4	9	4	12
O=C1NC(Nc2nccs2)(C(F)(F)F)C(=O)N1CCc1ccccc1 (stereo not drawn)	-6	3	2387	5.4	8	10	-4
COc1ccc(C2(CNC(=O)c3ccc(C)cc3)CCOCC2)cc1	-25	-6	2268	8.3	2	3	-2
O=c1c2ccccc2sn1-c1cc(S(=O)(=O)N2CCOCC2)ccc1N1CCCC1	-26	15	20573*	6.6	0	-3	4
COc1ccc(S(=O)(=O)N2Cc3ccccc3CC2C(=O)Nc2nccs2)cc1 (stereo not drawn)	-33	-5	23488*	-3.7	-10	3	-13
Cc1cc(N2CCCC2)ccc1/C=C1/C(=O)N(C)C(=S)N1C	-18	1	5322	nt	nt	nt	nt
CCOc1ccc(S(=O)(=O)N2CCN(C(=O)C3CCC3)CC2)cc1	-8	1	5249	-0.5	-2	10	1
Cc1cccc2cc(CN(CCCO)C(=O)Nc3ccccc3Cl)c(=O)[nH]c12	1	-2	3098	6.6	10	6	10
